Calb biofilm kill: mixtures killing C. albicans biofilm; C. albicans biofilm persisters + clotrimazole, fluorescence viability; primary screen in compound mixtures of four per well; inhibition, % at 7.6 µM; 0.02% of 120,000 active;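 active = inhibition above 30.3% in the primary screen of four-compound pools, then above 30% when the compound was retested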;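 also: compounds exposed to preformed 24 h biofilms for 48 h; the number belongs to the whole pool; some results filed as inactive read as strong as hits; inactives centre near 12; 0% = biofilm with clotrimazole alone and 100% = kill control; retested singly at about 60 µM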
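System: C. albicans CAF4-2 wild-type biofilms; Medium: RPMI/MOPS medium, pH 7.0; Reagent: Clotrimazole, 50 µg/mL; Times: biofilm formation 24 h, compound exposure 48 h, 37 °C; Detection: 2-h Alamar Blue fluorescence, 535/590 nm excitation/emission; Evaluation: percent inhibition of biofilm viability.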
Starred values were filed as active, the others as inactive. The list is partial; the hit share may differ from the screen's.

#	compound	Calb biofilm kill
1	CC(=O)c1ccc(NC(=S)N2CCC(O)CC2)cc1	12.6
2	Cc1ccc(C(=O)NNC(=O)C2CCN(S(=O)(=O)c3ccc(Cl)cc3)CC2)cc1	17.8
3	Cc1ccc(C)c(NNC(=O)C(=O)NNc2cc(C)ccc2C)c1	6.2
4	Oc1cccc(/C=N\Nc2nncc(-c3ccccc3)n2)c1	17.2
5	CC(/C=C/c1ccccc1)=N\NC(=O)CNC(=O)c1ccccc1Cl	13.2
6	CCOC(=O)c1cccc(COC(=O)c2cccc(-c3nnc(-c4ccccc4)o3)c2)c1	12.8
7	CC(C)C[C@@H](CN(N=O)[C@@H](Cc1ccccc1)CN(C)N=O)N(CCc1ccccc1)N=O	20.2
8	COc1cc2cc(C)c(SCC(=O)N3CCN(C(=O)c4ccco4)CC3)nc2cc1OC	20.5
9	CCN1C(=O)CS/C1=N\S(=O)(=O)c1ccc(C)cc1	8.0
10	C/C(=N\NC(=O)C1CC1(c1ccccc1)c1ccccc1)c1cccc([N+](=O)[O-])c1 (stereo not drawn)	10.7
11	Cc1cc(/C=C2\NC(=O)NC2=O)c(C)n1-c1ccc(N2CCOCC2)cc1	6.8
12	O=C(Nc1ccc(Cl)c([N+](=O)[O-])c1)c1cnccn1	-11.7
13	COc1cc(OC)c(C(=O)NCCCn2ccnc2)cc1OC	0.6
14	CCc1ccc(S(=O)(=O)Nc2cc(SCC(=O)O)c(O)c3ccccc23)cc1	7.4
15	O=Cc1c(N2CCCCC2)nc2ccccn2c1=O	8.1
16	COCCNC(=O)CSc1nc2scc(-c3ccccc3)c2c(=O)[nH]1	10.9
17	CN(Cc1cc(=O)n2ccsc2n1)c1ccccc1	12.4
18	CC(C)CN(CC(C)C)CC(O)CN(c1ccccc1)S(=O)(=O)c1ccccc1[N+](=O)[O-] (stereo not drawn)	14.4
19	COc1ccc(N=C(N)SCc2ccccn2)cc1	16.2
20	N#Cc1ccc(CSc2nnc(-c3c[nH]c4ccccc34)n2-c2ccccc2)cc1	17.1
21	c1ccc(CNc2nc(CN3CCOCC3)nc3scc(-c4ccccc4)c23)cc1	22.6
22	Cn1cnnc1SC/C(O)=C(\C#N)c1nc2ccccc2[nH]1	-2.9
23	COC(=O)C(Cc1csc2ccc(Cl)cc12)NC(=O)c1ccc(Cl)cc1 (stereo not drawn)	4.1
24	Cc1ccc(C(=O)N2NC(c3ccc(F)cc3)C3C(=O)N(c4ccc(C)c(C)c4)C(=O)C32)cc1 (stereo not drawn)	10.2
25	CC[C@H](C)[C@H](NC(N)=O)C(=O)NCCc1ccc(Cl)cc1	4.6
26	CN(C)/N=C/c1ccc(OS(=O)(=O)c2ccccc2)cc1	23.9
27	COc1ccc(-n2cc(CNCCCn3ccnc3)c(-c3cccc(F)c3)n2)cc1	7.3
28	CCN1CCN(CC(=O)c2cc(OC)c(OC)c(OC)c2)CC1	16.4
29	CSCCC(NC(=O)C12CC3CC(CC(C3)C1)C2)C(=O)OCC(=O)c1ccccc1 (stereo not drawn)	16.9
30	COc1ccccc1C(=O)NCCC(=O)Nc1cccnc1	24.9
31	CCOC(=O)C1CCN(Cc2ccccc2C(F)(F)F)CC1	12.2
32	Cc1cccc(C(=O)N[C@H](C(=O)Nc2nnc(C3CC3)s2)C(C)C)c1	10.3
33	CCOC(CNC(=O)c1nnc(Cc2cc(OC)c(OC)c(OC)c2)o1)OCC	9.8
34	Cc1ccc(S(=O)(=O)N2CCN(C(C)C(=O)Nc3ccccc3-c3ccccc3)CC2)cc1 (stereo not drawn)	11.4
35	Cc1cc(S(=O)(=O)N2CCC(N3CCCCC3)CC2)ccc1-n1cnnn1	12.3
36	CCc1nnc(NC(=O)C2CCCN2C(=O)Nc2ccccc2)s1 (stereo not drawn)	13.9
37	Cn1ccc(-c2ccccc2)c(C#N)c1=O	12.2
38	CC(C)(C)NC(=O)C(c1ccccn1)N(C(=O)c1csnn1)C1CCCCC1 (stereo not drawn)	8.8
39	Cc1ccc2nc(SCC(=O)NC3CCCc4ccccc43)[nH]c2c1 (stereo not drawn)	16.6
40	COc1cccc(Nc2nc(CN3CCOCC3)nc3sc4c(c23)CCCC4)c1	11.1
41	CCCc1nn(C)c(C(=O)Nc2cccc(CC)c2)c1Cl	16.6
42	O=C(O)CC/C(=N\Nc1ccc(S(=O)(=O)N2CCOCC2)cc1[N+](=O)[O-])c1cccs1	16.2
43	O=C(COc1ccc(Br)cc1)N(Cc1ccccc1)c1ccccn1	4.8
44	Cc1ccc(S(=O)(=O)NN2C(=O)c3ccccc3NC2c2cccc(O)c2)cc1 (stereo not drawn)	8.8
45	Cc1ccc(C(=O)NCC(=O)Nc2cccc(C(F)(F)F)c2)cc1	23.3
46	Cc1onc(-c2c(Cl)cccc2Cl)c1C(N)=S	13.4
47	Cn1cc([N+](=O)[O-])c(C(=O)N/N=C/c2ccc3c(c2)OCO3)n1	6.9
48	COc1ccc(N2C(=S)N=C(Nc3ccccc3)C23CCCCC3)cc1	12.3
49	O=C(NCSc1ccnc(SCNC(=O)c2ccccc2)n1)c1ccccc1	9.8
50	Cc1ccccc1OCC(=O)NCCc1nc2ccccc2[nH]1	3.7

Next structures.
#	compound	Calb biofilm kill
51	C/C(=N/Nc1ccc(C(=O)O)cc1)c1ccc(O)c(O)c1O	8.9
52	O=C(Nc1ccc(F)cc1)Oc1ccc[nH]c1=O	7.6
53	CS/C(=N\S(=O)(=O)c1cccs1)Nc1ccc(F)c(Cl)c1	13.8
54	Cc1ccccc1C(=O)Nc1sc2c(c1C(=O)O)CCC2	4.6
55	Cc1sc2ncnc(Nc3ccc(N4CCOCC4)cc3)c2c1-c1ccccc1	6.7
56	O=C(OCCNc1ccc(C(F)(F)F)cc1[N+](=O)[O-])c1cc2ccccc2oc1=O	19.8
57	CC(=O)OC(c1nc2ccccc2c(=O)n1C1CC2(OC1=O)c1ccccc1N1C(=O)C(C)(C)N(O)C12)C(C)C (stereo not drawn)	13.1
58	CC(=O)n1cc([C@@H]2C=C(C(=O)Nc3ccccc3)O[C@H](OCc3ccc(CO)cc3)C2)c2ccccc21	13.2
59	O=C(CSc1n[nH]c(=O)[nH]c1=O)NC1CCCCC1	-4.2
60	C=CCOCCN(C)C1=NS(=O)(=O)c2cc([N+](=O)[O-])ccc21	19.6
61	COc1ccc(OC)c(NS(=O)(=O)c2ccc(Br)s2)c1	31.2
62	NC(=O)NC(CC(=O)NCCc1ccc(S(N)(=O)=O)cc1)c1ccccc1Cl (stereo not drawn)	11.2
63	CCOC(=O)C(C)Oc1cccc2c(=O)n(CC(=O)NCCc3ccccc3)ccc12 (stereo not drawn)	14.4
64	O=c1cc(-c2ccc(O)c(O)c2)oc2cc(O)cc(O)c12	8.1
65	Cc1ccc2c3c([nH]c2c1C)-c1nonc1CC3	6.9
66	Cc1ccc(CCNC(=O)CNC(=S)N(Cc2ccccc2)Cc2cccnc2)cc1	10.5
67	O=C(CSc1nnc(CNC(=O)c2cccs2)o1)Nc1ccccc1	6.3
68	COc1ccc(-c2csc(Nc3ccc(S(=O)(=O)Nc4cc(C)on4)cc3)n2)cc1C	16.3
69	O=C(N/N=C/C1=Cc2ccccc2OC1)c1ccncc1	24.7
70	C[N+]1(CC(=O)OCCCc2ccccc2)CCCCC1	17.6
71	O=C(Nc1ccccc1)N1CCCN(c2c(Cl)cncc2Cl)CC1	12.6
72	O=C(O)COc1ccccc1/C=N/NC(=O)c1ccc(F)cc1	10.0
73	CC(Sc1nncs1)C(=O)Nc1ccc2c(c1)OCO2 (stereo not drawn)	8.5
74	OC(COc1ccccc1)CN1CCCC1 (stereo not drawn)	21.8
75	O=C(O)CC(Cc1ccccc1)C(=O)NCC12CC3CC(CC(C3)C1)C2 (stereo not drawn)	12.2

2 compounds picked at random from those above, as already listed:
#	compound	Calb biofilm kill
55	Cc1sc2ncnc(Nc3ccc(N4CCOCC4)cc3)c2c1-c1ccccc1	6.7
67	O=C(CSc1nnc(CNC(=O)c2cccs2)o1)Nc1ccccc1	6.3

Continuation:
#	compound	Calb biofilm kill
76	Cc1ccc(Nc2nc(-c3ccncc3)nc3ccccc23)cc1	6.4
77	Cc1cc(C(=O)N/N=C2\CCCC(=O)C2)c2ccccc2n1	14.8
78	Cc1ccc(CNc2nc(N)c([N+](=O)[O-])c(NCc3ccccc3)n2)cc1	16.1
79	O=C(/C=C/c1ccc([N+](=O)[O-])cc1)NCCOc1ccc(F)cc1	3.0
80	CC(C)(C)c1cc(C(=O)N/N=C/c2ccccn2)n[nH]1	8.3
81	O=C(NN1CCOCC1)c1ccc(Br)s1	7.7
82	CC(=O)Nc1ccc(OCCOc2ccc(/C=C3/C(=N)N4C=CSC4=NC3=O)cc2)cc1	13.5
83	O=C(NNC(=S)Nc1ccccc1C(F)(F)F)C1CC1	16.1
84	Cc1c(C(=O)N2CCCCC2)sc(NC(=O)c2ccco2)c1C#N	11.1
85	CCOCCCNC(=O)C(c1ccc(Cl)cc1)N(Cc1ccc2c(c1)OCO2)C(=O)CNC(C)=O (stereo not drawn)	5.3
86	O=C(NNS(=O)(=O)c1ccc(C(F)(F)F)cc1)c1cnn(-c2ccccc2)c1C(F)(F)F	23.1
87	Nn1cnc2c([nH]c3ccccc32)c1=O	17.6
88	CCOC(=O)/C(=C\c1ccccc1)NC(=O)c1ccccc1	15.1
89	Cc1ccc(CN2CCCC(CO)(Cc3ccccc3C)C2)s1 (stereo not drawn)	3.8
90	Cc1cc(Br)c(OCc2ccc(C(=O)N/N=C3\CC4CC=CC34)cc2)c(Br)c1 (stereo not drawn)	3.6
91	CC(OC(=O)c1ccccc1N1C(=O)C2C3CCC(C3)C2C1=O)C(=O)c1ccccc1 (stereo not drawn)	18.1
92	O=C(CN1CCc2ccccc21)NCc1ccc2c(c1)OCO2	19.2
93	O=C(Nc1ccccc1)N1CCN(C2c3ccccc3-c3ccccc32)CC1	10.9
94	CCc1nnc(SCC(=O)Nc2ccc(C(C)=O)cc2)nc1CC	5.8
95	COc1cc(/C=C/C(=O)O)cc(S(=O)(=O)Nc2ccc3nc(C)sc3c2)c1OC	5.3
96	N#Cc1cc2cc3ccccc3nc2n2c(=O)c3ccccc3nc12	5.0
97	COCCNC(=S)N(Cc1cccnc1)Cc1ccc(OC)c(OC)c1	5.9
98	CCOCCn1c(=NC(=O)/C=C/c2ccccc2Cl)sc2cc(NC(C)=O)ccc21	7.4
99	COC(=O)c1c(-c2cc(C)ccc2C)csc1NC(=O)C1CC=CCC1C(=O)O (stereo not drawn)	8.0
100	CCOc1cc(CNCCN2CCOCC2)ccc1OCc1ccccc1Cl	8.7
101	COc1ccc(C(=O)n2nnc3ccccc32)cc1OC	14.8
102	Cn1nnnc1NCc1ccc(Cl)c(Cl)c1	19.9
103	O=c1cc2c(nn1Cc1ccc(F)cc1)-c1ccccc1CC2	-13.7
104	C/C(=N\NC(=O)CCC(=O)Nc1ccccc1)c1cccs1	8.3
105	O=C(O)C1CCN(C(=O)Cc2ccccc2)CC1	24.6
106	CC1=CN2C(=NC(=O)CC2(C)C(=O)N(CC(=O)NC2CCCC2)c2ccccc2C)C=C1 (stereo not drawn)	9.5
107	Clc1ccc(C[n+]2cc(-c3ccc(Cl)cc3)n3c2CCC3)cc1	6.4
108	COc1cc(N/N=C(\C)c2ccc(O)c(C)c2)nc(-c2ccccc2)n1	24.7
109	Cc1cccc2cn[nH]c12	12.2
110	COc1cccc(NC(=S)Nc2cccnc2)c1	16.5
111	O=C(CCc1ccccc1)NNC(=O)Nc1ccccc1	13.5
112	CC(C)OC1(c2ccccc2)OC(=O)c2ccccc21 (stereo not drawn)	15.3
113	COc1cc(OC)cc(C(=O)NCC(=O)OCC(=O)/C=C2/N(C)c3ccccc3C2(C)C)c1	1.0
114	COc1ccccc1Oc1ccc(Oc2ccccc2OC)cc1	8.3
115	NC(=O)COC(=O)c1ccccc1Oc1ccccc1	3.1
116	Cc1ccc(-n2cc(CN3CCN(C(=O)c4ncn[nH]4)CC3)c(-c3ccc(F)cc3)n2)cc1	8.8
117	Cn1c(O)c(N=Nc2nc(-c3ccccc3)cs2)c2ccccc21	7.3
118	COc1ccc(CNC(=O)COC(=O)CCc2nc3ccccc3c(=O)[nH]2)cc1	16.6
119	COc1ccc(/C=C2\CCCC3C2=NN(C(=O)CSc2ncn[nH]2)C3c2ccc(OC)cc2)cc1 (stereo not drawn)	16.5
120	Cc1c(NC(=O)c2ccc(-c3ccc([N+](=O)[O-])cc3Cl)o2)c(=O)n(-c2ccccc2)n1C	12.9
121	O=C(CSc1nnc2n1CCCN2C(=S)Nc1ccc(Cl)cc1)c1ccccc1	15.4
122	O=C(NNC(=S)NCc1ccco1)C(c1ccccc1)c1ccccc1	7.7
123	CC1CCc2onc(C(=O)NCc3ccco3)c2C1 (stereo not drawn)	20.3
124	CS(=O)(=O)N1CCC(CO)(Cc2ccccc2C(F)(F)F)CC1	-9.8
125	CC(C)C[C@H](NC(=O)c1[nH]cnc1C(=O)N[C@@H](C)C(=O)OC(C)(C)C)C(=O)OCc1ccccc1	19.1

Next part
#	compound	Calb biofilm kill
126	CCOc1cc(C(=S)N2CCOCC2)ccc1OS(=O)(=O)c1ccccc1	9.7
127	Cc1cc2nccc(-c3ccc(Cl)c([N+](=O)[O-])c3)n2n1	14.4
128	CNC(=O)NC(=S)NC(=O)c1cccc(Cl)c1	9.3
129	O=C(CNC(=O)c1ccco1)NCC(=O)OC(C(=O)c1ccccc1)c1ccc(Cl)cc1 (stereo not drawn)	6.3
130	O=C(NCc1ccccc1)C(c1ccc(O)cc1)N(C(=O)Cn1nnc(-c2cccs2)n1)c1ccc2c(c1)OCCO2 (stereo not drawn)	6.7
131	O=C(COC(=O)C1CCN(S(=O)(=O)c2ccccc2C(F)(F)F)CC1)NCc1ccc(F)cc1	7.0
132	O=[N+]([O-])c1ccc(O)c(C=Nc2ccc3c(c2)OCCO3)c1	17.8

Screening data: PubChem, PCMD
